# From PubChem
# ClpP mod: qHTS Assay for Activators of ClpP; AID 651965, 2013; purified B. subtilis ClpP, FRET peptide cleavage, 20 min; Potency, µM (titrated, usually from 57.5 µM), without a hit: at the highest dose activity change, negative = active; 340,000 tested, 1.9% active; active = well fitted falling curve with a large enough effect; inconclusive = small, poorly fitted or top-dose-only effect; inactive = no such curve, though single readings can be large or run the other way; also: potency is read from the fitted curve at half-maximal effect; the source files actives as falling curves though it sought activators and does not explain the sign; nearly all actives have a fitted effect of over 65% in size; many hits overshoot -100%
# Target sequence (P80244 whole entry, looked up): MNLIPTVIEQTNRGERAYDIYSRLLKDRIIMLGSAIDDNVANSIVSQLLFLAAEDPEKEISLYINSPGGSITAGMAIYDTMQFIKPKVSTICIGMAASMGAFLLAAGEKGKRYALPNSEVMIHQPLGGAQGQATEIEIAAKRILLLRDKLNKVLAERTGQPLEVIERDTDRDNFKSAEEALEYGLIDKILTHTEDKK
#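 Buffer: 100 mM Tris/HCl pH8, 100 mM KCl, 0.05% low protease BSA, 2.5% glycerol, 0.01% Tween-20. ClpP 10 microg/mL final; 20 min RT; delta FRET normalized to ADEP and DMSO controls.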
# gsp antagonist: antagonists of gsp mutant (McCune-Albright syndrome). Potency, µM (doses to about 76.9 µM), for the others: top-dose activity change, negative = inhibition, usual class: inhibitors. gsp-mutant cells, cAMP HTRF, 30 min; control for the full effect not named in the record. 340,000 tested, 0.4% active; active = falling curve of any shape with a large fitted effect; inconclusive = falling curve, mostly with a smaller effect; inactive = flat or rising curve; cell line not stated here;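 also: intracellular cAMP measured with PDE inhibitor Ro 20-1724 present during compound exposure; potency is read from the fitted curve at half-maximal effect; % is scaled to controls: 0 for no effect and ±100 for the full control effect; nearly all actives have a fitted effect of over 65% in size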
#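 Measurement of cellular cAMP by homogeneous time-resolved fluorescence following a 30 min compound exposure at 37C. The PDE inhibitor […] was present throughout; the assay buffer was DPBS with 0.05% BSA and 0.005% Tween 20.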
# TRPML1 ag: agonists of human TRPML1 channel; Q9GZU1; TRPML1-expressing cells, Ca2+ dye fluorescence, FDSS; host cell line not named in the record; reference of the full effect not given here; activation, % (test concentration not listed); 410,000 tested, 0.12% active; in the data active = activation above about 50%; inconclusive = about 30% to 50%; inactive = below about 30%; also: 0% is about no effect; the text of the record puts the active cut at 80%
# Target sequence (Q9GZU1 whole entry, looked up): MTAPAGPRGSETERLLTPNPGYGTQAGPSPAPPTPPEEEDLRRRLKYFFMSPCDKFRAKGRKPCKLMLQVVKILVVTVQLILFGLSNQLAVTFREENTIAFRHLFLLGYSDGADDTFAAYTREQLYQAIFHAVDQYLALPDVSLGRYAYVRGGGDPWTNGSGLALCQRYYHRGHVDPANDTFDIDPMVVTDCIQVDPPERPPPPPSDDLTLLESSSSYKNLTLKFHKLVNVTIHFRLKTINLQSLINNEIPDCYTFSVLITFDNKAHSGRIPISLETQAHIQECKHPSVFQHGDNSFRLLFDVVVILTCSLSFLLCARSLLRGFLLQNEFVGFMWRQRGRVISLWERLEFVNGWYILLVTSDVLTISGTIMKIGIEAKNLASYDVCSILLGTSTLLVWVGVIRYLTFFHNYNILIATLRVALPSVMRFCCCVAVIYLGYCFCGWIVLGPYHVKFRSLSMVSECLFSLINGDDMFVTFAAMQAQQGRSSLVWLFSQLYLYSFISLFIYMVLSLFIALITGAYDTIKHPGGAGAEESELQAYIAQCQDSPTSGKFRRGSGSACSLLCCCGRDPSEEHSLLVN
#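 In this qHTS format, compounds were pin-transferred onto Ca8-dye-loaded TRPML1-DL cells induced with Tet overnight, and intracellular Ca2+ fluorescence was recorded kinetically for 110 s after a 10 s baseline. A subsequent 4uM final 54-4 (EC80) addition followed by a second 110 s read served as the antagonist phase.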
# gsp ag: agonists of gsp mutant (McCune-Albright syndrome). gsp mutant cells, cAMP HTRF, 30 min; control for the full effect not named in the record. Potency, µM (titrated, usually from 76.9 µM), for inactives: top-dose activation (cAMP increase), most hits filed as activators. 340,000 tested, 0.13% active. AID 624287; active = well fitted activation curve with a large enough effect; inconclusive = small, poorly fitted or top-dose-only effect, or another doubt; inactive = no such curve, though single readings can be large or run the other way; cell line not stated here;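 also: phosphodiesterase inhibitor Ro 20-1724 added with compounds to block cAMP breakdown; potency is read from the fitted curve at half-maximal effect; nearly all actives have a fitted effect of over 60% in size; about a fifth of the inactives were tested at one dose only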
#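 Cells stably selected in G418 were plated at 2000/well, grown 16-24 hr, then given compounds in DMSO with the PDE inhibitor […] (300 uM solution added) for 30 min at 37C; cAMP was read by HTRF.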
# TRPML1 blocker: inhibitors of human TRPML1 channel | 390,000 tested, 0.02% active | TRPML1-inducible cells, Ca2+ dye fluorescence, FDSS; hits give low values; inhibition of EC80 agonist-evoked calcium signal | activity change, negative = inhibition, % (no concentration beside the values); in the data active means activity change below about -50%; inconclusive means about -30% to -50%; inactive means above about -30%;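 also: stimulus is agonist 54-4 at its EC80 concentration; % is scaled to controls: 0 for no effect and ±100 for the full control effect; compound concentration not given in the record; the text of the record puts the active cut at -80%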
#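 Tet-induced TRPML1-DL cells loaded with Ca8 no-wash calcium dye were read kinetically on FDSS. Compound addition was followed by EC80 agonist 54-4 (4 uM final); inhibition was read over 110 s.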
# Menin MLL FP FL: menin-MLL binding inhibition, fluorescein peptide. 290,000 tested, under 10 active. FP activity change, % at 61.4 µM. Fluorescence polarization, fluorescein-MLL peptide displacement from menin; inconclusive = falling polarisation curve, or a change in total fluorescence; inactive = total fluorescence flat and polarisation flat or rising; no compound was filed as active; the % refers to the polarisation; negative = inhibition;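 also: % of control where 0% means no effect; inhibitors lower the polarisation; unlabelled MLL peptide was the positive control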
# * marks the source's active call; other numbers are inactive results; ? = inconclusive; / = no result given; & = joins results of further samples; [ ] = another dose, or the depositor's remark.
SMILES,ClpP mod,gsp antagonist,TRPML1 ag,gsp ag,TRPML1 blocker,Menin MLL FP FL
CC(=O)c1ccc(NC(=O)C2CCN(S(=O)(=O)c3cccs3)CC2)cc1,0.0%,-12%,-0.8,-30%,-10,1.1
CC(C)(C)c1cc(CSC(=S)NC2CCS(=O)(=O)C2)c(Br)c(C(C)(C)C)c1 (centres undefined),/,-5%,-0.7,-10%[15.4 µM],-2,0.0
C=C(C)[C@@H]1CC=C(CN2CCC(N3CCC(C(=O)N4CCCC4)CC3)CC2)CC1,-3.2%,18%,-0.3,-1%[15.4 µM],16,0.3
CCOc1cc(N2CCOCC2)c(OCC)cc1NC(=O)Cc1ccccc1OC,-3.8%,-6%,-0.7,-47%[inhibitor],36,-1.5
C/C(=N\NC(=S)NCc1ccccc1)c1ccccc1F,/,-5%,3.5,7%,-14,0.0
Cc1ccc(S(=O)(=O)N2CCCOC2CNC(=O)C(=O)NCCc2c[nH]c3ccccc23)cc1 (centres undefined),-4.2%,-21%,1.3,-3%,-5,3.0
C=C1CCN(CC(=O)OC)S(=O)(=O)c2ccccc21,0.1%,9%,0.6&-0.1,/,0&1,-1.7&3.5
COc1cccc(Cn2nnc3c(=O)[nH]c(C4CCN(C(=O)c5ccccc5Cl)CC4)nc32)c1,-2.8%,/,2.1,/,-8,/
COc1ccc(OC)c(CNC(=O)c2c(C)oc3ncn(C)c(=O)c23)c1,0.3%,/,-0.3,/,8,/
Cc1c(C(=O)NCCN(C)C)oc2c1-c1nn(Cc3cccc(Cl)c3)cc1CC2,?,/,1.1,/,-23,/
Cn1nccc1C(=O)Nc1ccc2c(c1)OCO2,1.7%,2%,0.0,-5%,0,/
CCOC(=O)N1CCN(S(=O)(=O)c2ccc(C(=O)NNc3nc4c(C)cc(C)cc4s3)cc2)CC1,-2.0%,-2%,-0.1,-44%[inhibitor],-7,6.6
CCC(C)NCCOCCOc1ccc(C)cc1Br (centres undefined),-1.1%,10%,0.5,7%,20,0.5
Cc1cccc(C)c1NC(=O)c1cccnc1,-1.5%,-10%,0.4,-11%[15.4 µM],31,-1.0
COc1ccc(-c2ccc(CCC(=O)O)n2-c2cc(Cl)ccc2O)cc1,-8.8%,/,0.0,/,2,/
COc1ccc(CCn2c(C)cc(C(=O)COC(=O)c3ccc(NC(=O)CC#N)cc3)c2C)cc1,-5.1%,-4%,0.2,?,0,/
CC(=O)c1c(C)[nH]c(C(=O)Nc2c(C)n(C)n(-c3ccccc3)c2=O)c1C,1.3%,-4%,-0.4,16%,0,-0.2
Cc1ccc(/C=N/NC(=O)c2cccc(S(=O)(=O)N3CCOCC3)c2)o1,-4.2%,0%,-0.1,-2%,-12,-3.2
CCOC(=O)N1CCN(C(=O)CNC(=O)c2ccccc2F)CC1,-1.6%,0%,0.7,10%[15.4 µM],-6,/
CCc1cccc(CC)c1-n1c(SCC(=O)N2CCc3ccccc3C2)nnc1-c1cccnc1,-1.9%,?,0.4,-39%,-6,15
COc1cccc(C(=O)OCC(=O)NC23CC4CC(CC(C4)C2)C3)c1,-3.0%,3%,1.0,16%[15.4 µM],15,/
COc1ccc(N2C(=O)CCC(C(=O)N3CCC(C(N)=O)CC3)C2c2ccc(F)cc2)cc1 (centres undefined),0.2%,8%,-0.3,-18%,12,-0.7
c1ccc(-c2ccccc2-c2nc(-c3ccncc3)no2)cc1,-2.7%,11%,1.1,1%,39,2.6
S=C(Nc1ccc(Oc2ccccc2)cc1)NC1CCCCCC1,1.8%,-19%,1.2,0%,-8,-1.5
Cc1cccc(CCNC(=O)c2cnc3c(C)cccn3c2=O)c1,4.8%,/,2.4,/,7,/
Cc1ccc(NC(=O)CCc2nc3ccccc3[nH]2)cc1C,0.3%,4%,/,?,/,-2.0
Cc1ccc(C2(C)NC(=O)N(CC(=O)NC(=O)NC(C)(C)C)C2=O)cc1 (centres undefined),-1.1%,20%,0.1,5%[15.4 µM],9,3.2
O=C(CNC(=O)c1ccc2c(c1)OCCO2)N/N=C/c1ccc([N+](=O)[O-])cc1,/,15%,-0.4,?,1,-1.1
C=CCC1C=CCC(CC=C)N1C(=O)c1ccccc1[N+](=O)[O-] (centres undefined),1.1%,-10%,4.2,-37%[inhibitor],44,1.6
COC(=O)c1ccc(S(=O)(=O)NNC(=O)COc2ccc(C)cc2)cc1,1.0%,2%,2.1,13%,40,3.6
NS(=O)(=O)c1ccc(CCNC(=O)CNC(=O)c2ccc(Oc3ccccc3)cc2)cc1,/,0%,-0.4,6%,15,-3.0
O=C1OC(Cc2ccccn2)C(O)=C1C1=NCCCN1 (centres undefined),0.7%,18%,0.0,-14%[15.4 µM],-13,/
O=S(=O)(NCc1csc(-c2cccnc2)n1)c1ccc(Br)cc1,-0.4%,0%,-0.7,17%,-23,5.3
Cc1nc(NC(=O)C2CC2)sc1C,-5.0%,12%,0.0,23%,18,-0.9
CCCc1cc(=O)oc2c(C)c3occ(C)c3cc12,?,4%,2.8,-7%[15.4 µM],1,2.9
Cc1cc(C)n(-c2nnc(C)n2/N=C/c2cc(Br)ccc2OCc2ccccc2)n1,-3.2%,?,-0.9,?,-8,-0.8
O=C(/C=C/c1ccco1)NC(=S)Nc1ccccn1,0.0%,-13%,-0.4,20%,-7,?
CC(C)NS(=O)(=O)c1ccc(CCC(=O)NCc2ccccn2)cc1,-1.1%,10%,0.2,0%,-15,-0.6
CC(=O)Nc1cccc(NC(=O)C(=O)NCC(c2ccco2)N2CCc3ccccc3C2)c1 (centres undefined),-9.3%,-30%,-0.3,-43%[inhibitor],-13,/
O=C(O)C1CC(C(=O)O)SS1 (centres undefined),/,2%,-0.1,-20%,-10,/
Nc1nc(SCCOc2ccccc2)n[nH]1,0.8%,0%,-0.2,-1%,-15,0.2
CCN(CC)C(=O)C1CCCN(C(=O)CCn2nnnc2CN2CCOCC2)C1 (centres undefined),-0.9%,5%,0.1,27%[15.4 µM],12,/
CCOC(=O)N1CCN(C(=O)CC(C)S(=O)(=O)c2cc3c(cc2C)NC(=O)CO3)CC1 (centres undefined),2.9%,5%,-0.2,19%,11,/
CC(C)N(C(=O)[C@H]1C[C@H](CC(=O)NCCN2CCOCC2)C(=O)N2CCc3c([nH]c4cc(CCC(=O)N(C)C)ccc34)[C@]12C)C(C)C,-5.5%,10%,-0.1,/,17,/
CCOC(=O)c1[nH]c2c(c1-c1ccccc1)C(=O)CC(c1ccc(OC)c(OC)c1)C2 (centres undefined),-1.8%,?,1.6,-24%,44,13
Cc1oc2ncn(C)c(=O)c2c1C(=O)Nc1ccc(F)cc1,-2.3%,/,0.6,/,-3,/
CC(=O)N1N=C(c2ccc3ccccc3c2)OC1(C)C,14%,6%,0.5,-45%[inhibitor],9,2.0
O=C1N/C(=N/Nc2ccccc2)S/C1=C\c1ccccc1,-2.0%,-10%,1.6,2%,-9,?
CCN(CC)S(=O)(=O)c1ccc(Cl)nc1,/,13%,-0.7,15%[15.4 µM],-9,2.0
Cc1ccc(S(=O)(=O)n2cccc2/C=C/[N+](=O)[O-])cc1,1.0%,/,1.1,-140%[inhibitor],-4,/

# Shown with two lines to a compound: part of the list above
# Values in the order – ClpP mod, gsp antagonist, TRPML1 ag, gsp ag, TRPML1 blocker, Menin MLL FP FL
- Cc1c(C(=O)NCCN(C)C)oc2c1-c1nn(Cc3cccc(Cl)c3)cc1CC2
 : ?, /, 1.1, /, -23, /
- C=C1CCN(CC(=O)OC)S(=O)(=O)c2ccccc21
 : 0.1%, 9%, 0.6&-0.1, /, 0&1, -1.7&3.5
- CCOC(=O)N1CCN(S(=O)(=O)c2ccc(C(=O)NNc3nc4c(C)cc(C)cc4s3)cc2)CC1
 : -2.0%, -2%, -0.1, -44%[inhibitor], -7, 6.6
- Cc1oc2ncn(C)c(=O)c2c1C(=O)Nc1ccc(F)cc1
 : -2.3%, /, 0.6, /, -3, /
- CC(C)NS(=O)(=O)c1ccc(CCC(=O)NCc2ccccn2)cc1
 : -1.1%, 10%, 0.2, 0%, -15, -0.6
- CCN(CC)C(=O)C1CCCN(C(=O)CCn2nnnc2CN2CCOCC2)C1 (centres undefined)
 : -0.9%, 5%, 0.1, 27%[15.4 µM], 12, /
- O=C(O)C1CC(C(=O)O)SS1 (centres undefined)
 : /, 2%, -0.1, -20%, -10, /

# Following part
SMILES,ClpP mod,gsp antagonist,TRPML1 ag,gsp ag,TRPML1 blocker,Menin MLL FP FL
CCC1CN(C(=O)N2CCC(C(=O)NCCc3ccc(OC)c(OC)c3)CC2)c2ccccc2O1 (centres undefined),-0.2%&-0.1%,-13%,-0.6&3.6,-2%,?,/
Cc1oc2cc3oc(=O)c(CCC(=O)NCCCC(=O)O)c(C)c3cc2c1C,?,0%,-0.2,?,13,-0.2
N=c1nc(-c2ccccc2)ccn1O,-9.2%,10%,-0.1,-11%,9,-0.4
Cc1cccc2sc(NC(=O)CN(C)S(=O)(=O)c3cccs3)nc12,-2.7%,4%[15.4 µM],0.3,-23%,8,-2.0
COc1cccc(-c2nc(NC(C)C)c3ccccc3n2)c1O,-0.9%,?,-0.7,-1%,-11,2.6
COc1ccc(-c2nc3ccccc3s2)cc1NC(=O)c1ccccc1OC,?,/,0.0,/,-1,/
Cn1c(SCCOc2ccccc2F)nc2ccccc2c1=O,-1.2%,-13%,3.9,-7%[15.4 µM],7,4.6
Cn1c(=O)c2cc(S(=O)(=O)NCCC(=O)NCC3CCCO3)ccc2n(C)c1=O (centres undefined),-14%,12%,2.0,?,-3,7.0
COC(=O)[C@@]12CCCCN1[C@H](c1ccc(SC3CCCCC3)cc1)[C@H]1C(=O)N(C)C(=O)[C@H]12,-4.1%,-1%,1.2,/,6,/
CC(C)(C)NC(=O)C(c1ccc(-c2ccccc2)cc1)N(C[C@H]1CC[C@@H]([C@@H]2CC[C@H](CO)O2)O1)C(=O)c1ccc(-c2ccccc2)cc1 (some centres undefined),-0.3%,-19%,2.7,/,-14,/
COc1cccc(C(=O)Nc2ccc(NC(=O)c3cc4ccccc4o3)c(OC)c2)c1,3.5%,1%,1.1,1%,3,-3.9
CCn1nc(C)cc1C(=O)N1CCCC(C(=O)c2ccc(Oc3ccccc3)cc2)C1 (centres undefined),4.3%,?,2.2,-29%,11,/
CCOc1ccc(NC(=O)CSc2ncc3c(n2)-c2ccc(Cl)cc2N(Cc2ccccc2)S3(=O)=O)cc1,-3.3%,/,0.0,/,9,/
COc1cc2c(cc1OC)CN(CC(=O)Nc1ccc(F)cc1)C(C(=O)O)C2 (centres undefined),/,6%,-0.3,12%,-9,-2.8
Nc1nnn(CC(=O)N/N=C/c2ccccc2)n1,-0.6%,8%,-0.1,-1%,-15,-2.5
